Compound activity deposited in PubChem BioAssay by Broad Institute.
Tg IFNy HTS: T. gondii growth inhibition with IFN-gamma, primary screen, cell-based; Toxoplasma gondii growth in IFN-gamma-treated host cells; active compounds read low; reference of the scale not given here; activity change, negative = inhibition, %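 (about 20 µM by stock and volumes)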; 3.8% of 69,000 active; AID 1259416, 2018;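 active = below -70%; inconclusive = fit judged invalid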;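 note: host cells are HeLa cells infected with Toxoplasma gondii; parasite growth read as luciferase light; one replicate is shown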
An asterisk follows results filed as active; ? = inconclusive; & = joins results of further samples; ! = not active in a repeat. Not all compounds are listed, so the mix of outcomes need not match the whole.

Cc1cccc(CNC(=O)c2c(O)c3cccnc3n(-c3cccc(F)c3)c2=O)c1
  Tg IFNy HTS = 46.4

CC(=O)c1ccc2c(c1)N(CCCN(C)C)c1ccccc1S2
  Tg IFNy HTS = 11.2&8.9

O=C(Cc1ccc(-c2ccc(OCCN3CCOCC3)cc2)cn1)NCc1ccccc1
  Tg IFNy HTS = ?

CC(=O)NC[C@H]1CN(c2ccc(-c3ccc(CNCc4cn[nH]n4)cc3)c(F)c2)C(=O)O1
  Tg IFNy HTS = -53.0

CN(C)[C@@H](CCOc1cccc2ccccc12)c1ccccc1
  Tg IFNy HTS = 5.6

C[C@H](Nc1cc(NS(=O)(=O)N2CCC2)nc(SCc2cccc(F)c2F)n1)[C@@H](O)CO
  Tg IFNy HTS = 23.1

Cc1cc(OCCN2CCOCC2)nn1-c1ccc2ccccc2c1
  Tg IFNy HTS = 11.6

COc1cc2c(cc1OC)C(=O)CC2
  Tg IFNy HTS = 23.3

CC(C)C[C@@H](C(=O)N[C@H](C(=O)OC1CCCC1)c1ccccc1)[C@H](O)C(=O)NO
  Tg IFNy HTS = -84.8*

COc1ccc(C(=O)CC(=O)c2ccc(C(C)(C)C)cc2)cc1
  Tg IFNy HTS = 24.5

CC(C)C1C(=O)N(S(C)(=O)=O)[C@@H]2CCN(C(=O)/C=C/CN3CCCCC3)[C@@H]12 (stereo not given in full)
  Tg IFNy HTS = 22.5

O=C(NCCc1c[nH]c2ccccc12)c1cccnc1
  Tg IFNy HTS = 40.4

Cc1ccc2c(c1)C(=O)NC1(CCN(C(=O)Cc3ccccc3Cl)CC1)N2C
  Tg IFNy HTS = 20.0

CCOc1ccccc1C(N)=O
  Tg IFNy HTS = 2.4

COc1ccc(CNC(=O)c2cc(-c3cncc(C)c3)ncc2-c2nccs2)nc1OC
  Tg IFNy HTS = 27.8

Cc1cc(OCc2nnc(SC3CCCC3)n2-c2cccnc2)ccc1-c1ccc(S(C)(=O)=O)cc1
  Tg IFNy HTS = -69.4

CC(C)N(C[C@H]1O[C@@H](n2cnc3c(N)ncnc32)[C@H](O)[C@@H]1O)C1CC(CCc2nc3ccc(C(C)(C)C)cc3[nH]2)C1 (stereo not given in full)
  Tg IFNy HTS = -69.0&10.1

CCc1ccc(NC(=O)Cn2c(=O)cc(-c3nc(C)no3)c3ccccc32)cc1
  Tg IFNy HTS = -18.8

c1ccc(CC2=NCCN2)cc1
  Tg IFNy HTS = 12.0&4.5&5.6

COc1ccc(S(=O)(=O)N2c3ccc(Cl)cc3[C@](O)(c3ccccc3Cl)[C@@H]2C(=O)N2CCC[C@H]2C(N)=O)cc1OC
  Tg IFNy HTS = 38.1&17.4

COc1ccccc1N1CCN(CCCNc2cc(=O)n(C)c(=O)n2C)CC1
  Tg IFNy HTS = 12.4&10.6

c1ccc(CN(CC2=NCCN2)c2ccccc2)cc1
  Tg IFNy HTS = 21.2&17.5&17.6

CC#CCn1c(N2CCC[C@@H](N)C2)nc2c1c(=O)n(Cc1nc(C)c3ccccc3n1)c(=O)n2C
  Tg IFNy HTS = 11.5

CCN1c2ccc(F)cc2C(=O)NC12CCN(C(=O)Cc1ccc(C)cc1)CC2
  Tg IFNy HTS = 15.5

COc1cccc(OC)c1-c1ccc(C[C@H](NC(=O)c2c(Cl)cccc2Cl)C(=O)O)cc1
  Tg IFNy HTS = 11.8

CC(=O)[C@H]1CCC2C3C[C@H](C)C4=CC(=O)CC[C@]4(C)C3[C@@H](O)C[C@@]21C (stereo not given in full)
  Tg IFNy HTS = -31.4

Cc1ccccc1NC(=O)c1nnn(Cc2nc(-c3cccc(Cl)c3)oc2C)c1C
  Tg IFNy HTS = 21.4

CC1(C)O[C@H]2CC(=O)OC[C@]23[C@H]2CC[C@@]4(C)[C@H](c5ccoc5)OC(=O)[C@H]5O[C@]54[C@]2(C)C(=O)C[C@@H]13
  Tg IFNy HTS = 4.3

C=CC1=C(C(=O)O)N2C(=O)[C@@H](NC(=O)/C(=N/O)c3csc(N)n3)[C@H]2SC1
  Tg IFNy HTS = 7.8

O=c1[nH]c2cc(C(F)(F)F)c(N3CCOCC3)cc2n(CP(=O)(O)O)c1=O
  Tg IFNy HTS = 19.5

O=C(c1ccc(C(=O)N2CCC(N3CCCC3)CC2)c(Nc2ccccc2)c1)N1CCC(N2CCCC2)CC1
  Tg IFNy HTS = 4.1

Oc1ccc(/C=C/c2cc(O)cc(O)c2)cc1
  Tg IFNy HTS = 107.9&-3.7

C[C@]12CCC(=O)C=C1CC[C@@H]1[C@@H]2CC[C@@]2(C)[C@H]1CC[C@]2(O)C(=O)CO
  Tg IFNy HTS = 2.6

C[C@@H]1COC(Nc2ccc3ncnc(Nc4ccc(OCc5nccs5)c(Cl)c4)c3c2)=N1
  Tg IFNy HTS = -73.0*

Cc1ccc(Nc2nc(C(=O)NCCc3cnc[nH]3)nc3ccccc23)cc1
  Tg IFNy HTS = 101.7

CCCCN(CCCC)C(=O)CN1C[C@H](c2ccc3c(c2)OCO3)[C@@H](C(=O)O)[C@@H]1c1ccc(OC)cc1
  Tg IFNy HTS = 8.5

CC(C(=O)O)c1ccc(C(=O)c2cccs2)cc1 (stereo not given)
  Tg IFNy HTS = -1.5&10.0

O=C(Nc1cc2cc[nH]c2cn1)c1ccccc1
  Tg IFNy HTS = -10.6

CS(=O)(=O)Nc1ccc2oc3c(OC(F)F)ccc(C(=O)Nc4c(Cl)cncc4Cl)c3c2c1
  Tg IFNy HTS = -14.5

Cc1c(NC(=O)c2cccnc2)c(=O)n(-c2ccccc2)n1C
  Tg IFNy HTS = 9.7&-32.9&-24.7

OCCN1CCN(CCCN2c3ccccc3Sc3ccc(Cl)cc32)CC1
  Tg IFNy HTS = -99.6*!

COc1ccc(Cn2ccc3ccc(C(=O)NO)cc32)cc1
  Tg IFNy HTS = -0.1

Nc1nnnn1-c1ccccc1
  Tg IFNy HTS = 10.9

Cc1ccccc1C(=O)Nc1ccc(C(=O)N2CCCC(O)c3cc(Cl)ccc32)c(C)c1 (stereo not given)
  Tg IFNy HTS = 17.6

CCCNC(C)C(=O)Nc1c(C)csc1C(=O)OC (stereo not given)
  Tg IFNy HTS = 8.1

O=C(CCNNC(=O)c1ccncc1)NCc1ccccc1
  Tg IFNy HTS = 29.8&3.3

Cc1oc(=O)oc1CN1CCN(c2cc3c(cc2F)c(=O)c(C(=O)O)c2n3C(C)S2)CC1 (stereo not given)
  Tg IFNy HTS = -20.8

COc1ccc(C(=O)NCc2ccc(OCCN(C)C)cc2)cc1OC
  Tg IFNy HTS = 12.0

CCN1CCN(Cc2ccc(Nc3ncc(F)c(-c4cc(F)c5nc(C)n(C(C)C)c5c4)n3)nc2)CC1
  Tg IFNy HTS = -77.9*

CC(=O)NC(Cc1ccccc1)C(=O)O (stereo not given)
  Tg IFNy HTS = 21.5

O=C1CCC(c2ccccc2)(C2CCN(Cc3ccc(I)cc3)CC2)C(=O)N1 (stereo not given)
  Tg IFNy HTS = 31.0

c1cc(OCCN2CCCCC2)cc(-c2n[nH]c3ccc(-c4ncn[nH]4)cc23)c1
  Tg IFNy HTS = -33.6

COc1cc2ncnc(Nc3cccc(O)c3)c2cc1OC
  Tg IFNy HTS = -25.3

Cc1cc(Cn2cnc3c2CC(C(=O)O)N(C(=O)C(c2ccccc2)c2ccccc2)C3)ccc1N(C)C (stereo not given)
  Tg IFNy HTS = 12.5

CCn1c(N)c(C(=O)NC)c(=O)c2ccc(C#C[C@@](C)(O)COC)nc21
  Tg IFNy HTS = 8.9

CN1CCOC(c2ccccc2)c2ccccc2C1 (stereo not given)
  Tg IFNy HTS = 2.1

Cc1cc(CC(C)CC(C)(C)C)n(O)c(=O)c1 (stereo not given)
  Tg IFNy HTS = -68.2

Cc1noc(-c2cc(=O)n(CC(=O)NCc3cccs3)c3ccccc23)n1
  Tg IFNy HTS = 58.7

Cc1c(I)c(=O)n(-c2ccccc2)n1C
  Tg IFNy HTS = 17.6

O=C(O)Cc1ccc2c(c1)C(=O)c1ccccc1CO2
  Tg IFNy HTS = 29.8

24 structures from above, arranged by formula weight, high to low.
COc1ccc(S(=O)(=O)N2c3ccc(Cl)cc3[C@](O)(c3ccccc3Cl)[C@@H]2C(=O)N2CCC[C@H]2C(N)=O)cc1OC
  Tg IFNy HTS = 38.1&17.4

CC(C)N(C[C@H]1O[C@@H](n2cnc3c(N)ncnc32)[C@H](O)[C@@H]1O)C1CC(CCc2nc3ccc(C(C)(C)C)cc3[nH]2)C1 (stereo not given in full)
  Tg IFNy HTS = -69.0&10.1

O=C(c1ccc(C(=O)N2CCC(N3CCCC3)CC2)c(Nc2ccccc2)c1)N1CCC(N2CCCC2)CC1
  Tg IFNy HTS = 4.1

Cc1cc(OCc2nnc(SC3CCCC3)n2-c2cccnc2)ccc1-c1ccc(S(C)(=O)=O)cc1
  Tg IFNy HTS = -69.4

CCCCN(CCCC)C(=O)CN1C[C@H](c2ccc3c(c2)OCO3)[C@@H](C(=O)O)[C@@H]1c1ccc(OC)cc1
  Tg IFNy HTS = 8.5

Cc1cc(Cn2cnc3c2CC(C(=O)O)N(C(=O)C(c2ccccc2)c2ccccc2)C3)ccc1N(C)C (stereo not given)
  Tg IFNy HTS = 12.5

CCN1CCN(Cc2ccc(Nc3ncc(F)c(-c4cc(F)c5nc(C)n(C(C)C)c5c4)n3)nc2)CC1
  Tg IFNy HTS = -77.9*

C[C@H](Nc1cc(NS(=O)(=O)N2CCC2)nc(SCc2cccc(F)c2F)n1)[C@@H](O)CO
  Tg IFNy HTS = 23.1

Cc1ccccc1C(=O)Nc1ccc(C(=O)N2CCCC(O)c3cc(Cl)ccc32)c(C)c1 (stereo not given)
  Tg IFNy HTS = 17.6

O=c1[nH]c2cc(C(F)(F)F)c(N3CCOCC3)cc2n(CP(=O)(O)O)c1=O
  Tg IFNy HTS = 19.5

OCCN1CCN(CCCN2c3ccccc3Sc3ccc(Cl)cc32)CC1
  Tg IFNy HTS = -99.6*!

CC(C)C1C(=O)N(S(C)(=O)=O)[C@@H]2CCN(C(=O)/C=C/CN3CCCCC3)[C@@H]12 (stereo not given in full)
  Tg IFNy HTS = 22.5

CCN1c2ccc(F)cc2C(=O)NC12CCN(C(=O)Cc1ccc(C)cc1)CC2
  Tg IFNy HTS = 15.5

CCc1ccc(NC(=O)Cn2c(=O)cc(-c3nc(C)no3)c3ccccc32)cc1
  Tg IFNy HTS = -18.8

C[C@]12CCC(=O)C=C1CC[C@@H]1[C@@H]2CC[C@@]2(C)[C@H]1CC[C@]2(O)C(=O)CO
  Tg IFNy HTS = 2.6

CC(=O)[C@H]1CCC2C3C[C@H](C)C4=CC(=O)CC[C@]4(C)C3[C@@H](O)C[C@@]21C (stereo not given in full)
  Tg IFNy HTS = -31.4

CC(=O)c1ccc2c(c1)N(CCCN(C)C)c1ccccc1S2
  Tg IFNy HTS = 11.2&8.9

Cc1c(I)c(=O)n(-c2ccccc2)n1C
  Tg IFNy HTS = 17.6

O=C(CCNNC(=O)c1ccncc1)NCc1ccccc1
  Tg IFNy HTS = 29.8&3.3

CN1CCOC(c2ccccc2)c2ccccc2C1 (stereo not given)
  Tg IFNy HTS = 2.1

Cc1cc(CC(C)CC(C)(C)C)n(O)c(=O)c1 (stereo not given)
  Tg IFNy HTS = -68.2

Oc1ccc(/C=C/c2cc(O)cc(O)c2)cc1
  Tg IFNy HTS = 107.9&-3.7

Nc1nnnn1-c1ccccc1
  Tg IFNy HTS = 10.9

c1ccc(CC2=NCCN2)cc1
  Tg IFNy HTS = 12.0&4.5&5.6

More results
| structure | Tg IFNy HTS |
| --- | --- |
| CC(=O)c1ccc(S(=O)(=O)NC(=O)NC2CCCCC2)cc1 | 25.0 |
| CN(C(=O)CCCOc1ccc2[nH]c(=O)ccc2c1)C1CCCCC1 | 6.1&9.5&34.1 |
| Nc1nc(=O)n([C@@H]2O[C@H](CO)[C@@H](O)[C@@H]2F)cc1I | 23.7 |
| CC(=O)Nc1ccc(C(=O)O)cc1 | 6.5 |
| COCCCOc1cc(C[C@@H](C[C@H](N)[C@@H](O)C[C@H](C(=O)NCC(C)(C)C(N)=O)C(C)C)C(C)C)ccc1OC | 14.5&6.5 |
| N[C@@H](CC(=O)Nc1ccc(Oc2cc(F)c(F)cc2Br)cc1)C(=O)O | 11.9 |
| Cn1cc(-c2cc3n(n2)CCC(=O)N3CC(=O)NCc2cccnc2)c2ccccc21 | 64.2 |
| C[C@H]1[C@H](C)CC[C@]2(C(=O)O)CC[C@]3(C)C(=CCC4[C@@]5(C)C[C@@H](O)[C@H](O)[C@@](C)(CO)C5CC[C@]43C)[C@H]12 (stereo not given in full) | 23.2 |
| CCN(CC)CCn1c(=O)c(Cc2ccc(OC)cc2)nc2ccccc21 | -1.7 |
| COc1ccc(-n2nc(CCC(=O)N(C)O)cc2-c2ccc(Cl)cc2)cc1 | -52.5 |
| Cc1cc(-c2ccccc2)nnc1NCCN1CCOCC1 | 7.9&3.6&11.6 |
| O=C(O)c1ccc[n+]([O-])c1 | 19.2 |
| NC(=O)c1cn(Cc2c(F)cccc2F)nn1 | 14.3 |
| Cc1ccc(Cn2c(CN3CCC(C(=O)NCc4ccccn4)CC3)cc3ccccc32)cc1 | 1.6 |
| C=CC1=C(C(=O)O)N2C(=O)[C@@H](NC(=O)/C(=N\O)c3csc(N)n3)[C@H]2SC1 (stereo in doubt) | -45.6 |
| COc1ccc(/C=C/C(=O)Nc2ccccc2C(=O)O)cc1OC | 167.9&127.4&73.7 |
| Nc1nc(OCc2cc(Br)cs2)c2[nH]cnc2n1 | -23.9 |
| CN(C)C/C=C/C(=O)Nc1cc2c(Nc3ccc(F)c(Cl)c3)ncnc2cc1O[C@H]1CCOC1 | -75.2* |
| COc1ccc(-n2nc(C(N)=O)c3c2C(=O)N(c2ccc(N4CCCCC4=O)cc2)CC3)cc1 | -3.0 |
| CCN1c2ccc(C)cc2C(=O)NC12CCN(C(=O)c1ccc(C(F)(F)F)cc1)CC2 | -16.9 |
